High-throughput results deposited in PubChem BioAssay by National Center for Advancing Translational Sciences (NCATS).
PINK1 modulator – A Quantitative High throughput Screen to Identify Chemical Modulators of PINK1 Expression; PINK1 immunofluorescence, high-content cytometry, 24 h; Potency, µM (highest dose often 76.6 µM), for the others: at the top dose activation (PINK1 increase), usual class: activators; AID 624263, 2012; actives 0.2% (n = 410,000); active = well fitted activation curve with a large enough effect; inconclusive = small, poorly fitted or top-dose-only effect; inactive = flat fitted curve, though single readings scatter; cell line not stated here;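 further: potency means the concentration at half of the fitted maximal effect; % of control where 0% means no effect; nearly all actives have a fitted effect of over 65% in size; a mitochondrial uncoupler was the plate control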
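PINK1 protein, normally rapidly degraded, was detected by immunofluorescence after 24 hour compound treatment of a stable cell line. Titration data (5 concentrations) came from laser-scanning cytometry, with CCCP-treated wells as controls.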
TRPML1 agonist – qHTS for Agonists of the Human Mucolipin Transient Receptor Potential 1 (TRPML1); Mucolipin-1 (Homo sapiens), Q9GZU1; TRPML1-expressing cells, Ca2+ dye fluorescence, FDSS; host cell line not named in the record; reference of the full effect not given here; activation, % (no concentration beside the values); actives 0.12% (n = 410,000); AID 624414, 2012; in the data active = activation above about 50%; inconclusive = about 30% to 50%; inactive = below about 30%; further: 0% is about no effect; the text of the record puts the active cut at 80%
Target sequence (Q9GZU1 whole entry, looked up): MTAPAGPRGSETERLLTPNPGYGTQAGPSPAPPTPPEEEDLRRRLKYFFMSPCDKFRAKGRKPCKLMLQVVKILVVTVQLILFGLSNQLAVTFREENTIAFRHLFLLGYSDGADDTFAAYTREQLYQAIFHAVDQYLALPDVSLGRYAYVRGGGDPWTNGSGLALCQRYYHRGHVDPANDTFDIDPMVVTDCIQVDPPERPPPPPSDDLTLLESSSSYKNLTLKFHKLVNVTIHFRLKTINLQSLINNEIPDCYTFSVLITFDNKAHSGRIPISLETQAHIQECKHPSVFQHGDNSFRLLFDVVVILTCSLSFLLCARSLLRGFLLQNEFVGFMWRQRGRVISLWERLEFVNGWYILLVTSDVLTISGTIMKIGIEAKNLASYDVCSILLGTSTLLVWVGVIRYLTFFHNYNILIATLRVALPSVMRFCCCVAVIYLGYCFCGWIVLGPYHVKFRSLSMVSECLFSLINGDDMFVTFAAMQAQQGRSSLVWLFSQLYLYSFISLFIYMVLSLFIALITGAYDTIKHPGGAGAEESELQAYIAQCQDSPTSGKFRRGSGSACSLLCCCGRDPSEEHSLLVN
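Kinetic FDSS Ca2+ read in Tet-induced TRPML1-DL cells (ABD Ca8 dye plus quencher, 45-90 min RT loading): baseline, then compound, then 110 s agonist window; EC80 agonist 54-4 at 4uM final added afterwards for a 110 s antagonist window.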
* hit, by the source's call; ? = inconclusive; nt = not tested or not shown.

SMILES	PINK1 modulator	TRPML1 agonist
CC1CCC2(C(=O)O)CCC3(C)C(=CCC4C3(C)CCC3[C@@]4(C)CC(O)C(O)[C@@]3(C)CO)C2C1C (some centres undefined)	1.1%	nt
CCOC(=O)c1ccc(NC(=O)c2cc(=O)c3ccc(C)c(C)c3o2)cc1	2.4%	-1.0
CCOc1ccc2nc(N3CCC(C(=O)Nc4ccccc4CC)CC3)sc2c1	-0.9%	-0.3
Cc1cccc(Cc2c(C)nc3c(-c4ccccc4)c(C)[nH]n3c2=O)c1	4.8%	1.1
CCOC(=O)c1sc(NC(=O)c2c(-c3ccccc3)c(-c3ccccc3)nn(C)c2=O)nc1C	-0.1%	2.2
Cc1ccc(C)c(Nc2nc3nonc3nc2Nc2cccc(C)c2C)c1	?	1.7
Cc1c(Cl)cccc1NC(=O)Cn1cc(C(=O)C2CCCCC2)c2ccccc21	8.4%	-0.8
CC(C)OCc1cc(CN2CCN(c3ccccc3)CC2)c(O)c2ncccc12	0.7%	-0.1

Part of the list above in order of length of the SMILES, falling:
SMILES	PINK1 modulator	TRPML1 agonist
Cc1c(Cl)cccc1NC(=O)Cn1cc(C(=O)C2CCCCC2)c2ccccc21	8.4%	-0.8
CCOc1ccc2nc(N3CCC(C(=O)Nc4ccccc4CC)CC3)sc2c1	-0.9%	-0.3
Cc1ccc(C)c(Nc2nc3nonc3nc2Nc2cccc(C)c2C)c1	?	1.7

Looked up one by one from above (four):
SMILES	PINK1 modulator	TRPML1 agonist
CCOc1ccc2nc(N3CCC(C(=O)Nc4ccccc4CC)CC3)sc2c1	-0.9%	-0.3
Cc1c(Cl)cccc1NC(=O)Cn1cc(C(=O)C2CCCCC2)c2ccccc21	8.4%	-0.8
Cc1ccc(C)c(Nc2nc3nonc3nc2Nc2cccc(C)c2C)c1	?	1.7
CCOC(=O)c1sc(NC(=O)c2c(-c3ccccc3)c(-c3ccccc3)nn(C)c2=O)nc1C	-0.1%	2.2

A portion of the library; the hit share may differ from the screen's.
